Screening results: PubChem BioAssay, several laboratories
MLL AF4-AF9 inh: MLL-AF4/AF9 protein interaction inhibition. P42568. AlphaScreen, biotin-AF4 peptide binding to FLAG-AF9. inhibition, % at 10 µM. 350,000 compounds, 0.47% hits;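 active means every replicate reaching a set inhibition limit, whatever the replicate mean, cut at about 25% in these data; inconclusive means mean inhibition reaches that limit but some replicates miss it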;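 further: 0% = plate neutral control median and 100% = total signal loss; the record names both 10 and 1 µM as test concentration; the first replicate is given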
Target sequence (P42568 whole entry, looked up): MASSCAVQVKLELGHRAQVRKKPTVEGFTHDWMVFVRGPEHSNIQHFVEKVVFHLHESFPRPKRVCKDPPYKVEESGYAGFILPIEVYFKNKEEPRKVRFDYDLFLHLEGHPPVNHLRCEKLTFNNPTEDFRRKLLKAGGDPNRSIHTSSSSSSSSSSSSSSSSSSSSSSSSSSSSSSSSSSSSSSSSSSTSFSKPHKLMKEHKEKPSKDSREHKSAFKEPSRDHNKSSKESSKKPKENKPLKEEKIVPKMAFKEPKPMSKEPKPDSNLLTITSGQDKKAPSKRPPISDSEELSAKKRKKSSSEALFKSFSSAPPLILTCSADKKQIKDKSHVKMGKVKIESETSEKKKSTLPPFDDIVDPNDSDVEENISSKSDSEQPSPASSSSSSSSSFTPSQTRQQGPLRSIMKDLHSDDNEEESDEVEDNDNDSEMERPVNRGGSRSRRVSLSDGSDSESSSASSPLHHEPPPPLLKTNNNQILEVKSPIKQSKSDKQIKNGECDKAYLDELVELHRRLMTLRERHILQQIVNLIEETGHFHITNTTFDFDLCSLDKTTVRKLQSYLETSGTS
E coli growth: E. coli growth inhibition. Escherichia coli growth, OD600, 23 h; stronger effect = lower value. OD600 absorbance (no concentration beside the values). 330,000 compounds, 0.21% hits;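 active means OD600 absorbance below the run mean of sample wells minus 3.6 SD, in any replicate, cut at about 0.56 in these data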;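 further: stock transfer was 300 nL into about 60 µL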
UCH37 inh: human UCH37 deubiquitinating enzyme inhibition | Q9Y5K5 | purified proteasome/UCH37, Ub-AMC cleavage fluorescence | inhibition, % (no concentration beside the values) | 330,000 compounds, 0.33% hits | AID 588478;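 active means mean of two replicates above 20%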;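 further: 0% = compound-free wells with enzyme and 100% = wells lacking proteasome; stock transfer was 100 nL into about 20 µL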
Target sequence (Q9Y5K5 whole entry, looked up): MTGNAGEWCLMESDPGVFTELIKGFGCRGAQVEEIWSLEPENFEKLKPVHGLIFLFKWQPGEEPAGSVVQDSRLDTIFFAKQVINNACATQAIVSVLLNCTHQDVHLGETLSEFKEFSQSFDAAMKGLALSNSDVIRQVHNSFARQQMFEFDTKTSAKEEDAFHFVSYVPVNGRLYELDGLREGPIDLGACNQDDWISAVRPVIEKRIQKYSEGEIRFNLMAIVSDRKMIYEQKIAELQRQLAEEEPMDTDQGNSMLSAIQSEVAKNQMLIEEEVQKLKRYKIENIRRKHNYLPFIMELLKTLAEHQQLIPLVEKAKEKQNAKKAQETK
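Material: Human UCH37 enzyme supplied as purified proteasome complex | Schedule: 30 min preincubation with enzyme, 25 min cleavage at room temperature | Detection: AMC fluorescence 355/460 nm | Measure: % inhibition of Ub-AMC cleavage fluorescence | Controls: Wells without proteasome as full block, compound-free enzyme plus substrate as uninhibited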
Vif A3G: HIV-1 Vif–A3G interaction blockers – biochemical, TR-FRET, GST-Vif 1-94, biotin-A3G peptide, dose response retest, primary screen (AID 1117319). TR-FRET GST-Vif / biotin-A3G peptide binding; higher % means a stronger effect; test concentration not given here; strong numbers were not always called active. one-dose inhibition, %; IC50 in µM for titrated hits. 260,000 compounds, 0.57% hits;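 active means above the screen mean plus three standard deviations and confirmed in dose response; inconclusive means results disagree or hit not tested in dose response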;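 further: Vif residues 1-94 fused to GST binding biotinylated APOBEC3G peptide 110-148; 0% = full assay without inhibitor and 100% = GST in place of GST-Vif; retest series ran down from 100 µM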
HNF4A DNA FP: change in binding of human HNF4 alpha to DNA. P41235. HNF4a-FITC DNA binding, fluorescence polarization, 1 h. activity change, % at 10 µM. 360,000 compounds, 0.3% hits. AID 1224865; in the data active means activity change above about 30%, passing the limit was not always enough;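 further: controls were the assay level and a saturating level of protein; the project sought stronger binding though the title names inhibitors; some compounds called inactive have numbers as strong as hits; positive values seem to mean higher polarization but the record does not say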
FGF22 binding: shifts melting point of recombinant human FGF22; recombinant FGF22 thermal shift, SYPRO orange fluorescence; percent of sucrose octasulfate shift, DMSO zero; calls only at 9.99 µM; 340,000 compounds, 1.5% hits; AID 651658;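 active means melting point raised past a set limit in the mean and every replicate; inconclusive means no clear call; three in four hits are not shown here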
Target sequence (Q9HCT0 whole entry, looked up): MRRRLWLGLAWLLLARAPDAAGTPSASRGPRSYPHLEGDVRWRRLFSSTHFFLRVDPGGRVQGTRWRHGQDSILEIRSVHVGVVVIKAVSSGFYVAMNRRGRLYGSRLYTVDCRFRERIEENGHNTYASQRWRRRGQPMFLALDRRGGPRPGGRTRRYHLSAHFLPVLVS
RanGTP-Imp inh: disruptors of Ran-importin-beta complex formation – biochemical, FRET, CFP-Ran, YFP-importin-beta, homogeneous, primary screen; inhibition, % (test concentration not listed); AID 2216; 300,000 compounds, 1.1% hits; cell-free CFP-Ran/YFP-importin-beta FRET ratio;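 active means most replicates above 15%; inconclusive means exactly half above 15%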;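 further: 0% = DMSO wells and 100% = Ran loaded with GDP instead of GTP; wells of about 40 µL received 100 nL stock; the first replicate is given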
Active calls of the source: *; i = inactive; ? = inconclusive; · = no result given; & = joins results of further samples. An excerpt (hit frequency here may not be typical).

SMILES	MLL AF4-AF9 inh	E coli growth	UCH37 inh	Vif A3G	HNF4A DNA FP	FGF22 binding	RanGTP-Imp inh
CCCCc1ccc(NC(=S)N2CCCC(C)C2)cc1 (centres undefined)	0.3	0.64	2.5	-9%	2.9	i	-0.3
CCOc1ccc(Cn2cc(F)c(=O)[nH]c2=O)cc1	1.1	0.65	4.4	-2%	0.8	i	1.8
Cc1ccc(NC(=O)c2nc[nH]c2C(=O)NCCCCNC(=O)c2[nH]cnc2C(=O)Nc2ccc(C)cc2)cc1	1.7	0.68	-2.7	·	2.5	i	·
Cc1ccc(OCCCC(=O)NCc2ccco2)c(C)c1	·	0.69	6.7	25%	·	·	3.1
CCCCC1(CC(=O)OCC)SCCN1C(N)=O (centres undefined)	-4.6	·	·	-5%	4.3	i	·
Cc1cccc(C)c1NC(=S)N(CCCN1CCOCC1)Cc1cccnc1	-0.6	0.7	4.3	-5%	0.5	i	0.5
COc1ccc(C(=O)N2CCOC2CNC(=O)C(=O)NCc2ccccn2)cc1 (centres undefined)	-1.0	·	·	-2%	-4.3	i	·
CCN(CC)S(=O)(=O)c1ccc(NC(=O)CSc2ncnc3ccccc23)cc1	·	0.67	3.0	·	0.6	·	7.2
CCOC(=O)CC1=C(C#N)C(c2cccnc2)C(C(=O)OCC)=C(N)O1 (centres undefined)	·	0.78	0.3	0%	-2.6	·	-4.9
CCOC(=O)C1=C(c2ccccc2)NC(=O)NC1c1cc(OC)c(O)c([N+](=O)[O-])c1 (centres undefined)	0.7	0.7	6.9	·	1.2	i	2.7
O=Cc1[nH]c2ccccc2c1N(C(=O)CCl)c1ccc([N+](=O)[O-])cc1	5.9	·	·	14%	0.8	i	-2.6
O=C(NCc1ccc(Cl)cc1Cl)Nc1nc([C@@H]2O[C@H](CO)[C@@H](O)[C@H](O)[C@H]2O)cs1	2.9	·	·	·	2.6	i	·
COc1ccc(C2C(C(=O)N3CCN(c4ccccn4)CC3)CC(=O)N2c2ccc(OC)cc2)cc1 (centres undefined)	·	0.7	-0.4	33%	0.7	·	6.5
COC(=O)c1ccc(COC(=O)CCNS(=O)(=O)c2ccc(C)c(C)c2)cc1	-7.1	0.7	-2.2	-7%	-1.3	i	·
CCOC(=O)C1=CC[C@H]2c3c(c4ccccc4n3C)C(=O)C1N2C(=O)OC(C)(C)C	0.2	·	1.2	·	0.0	i	·
COc1ccc(C(=O)C2CCCN(C(=O)Cn3nc(C)nc3C)C2)cc1F (centres undefined)	0.9	·	·	-4%	1.7	i	·
CC(=O)c1c(C)[nH]c(C(=O)OCC(=O)c2ccc3c(c2)NC(=O)CO3)c1C	-5.5	0.69	-0.1	·	5.8	i	·
COc1cc(NC(=O)c2cc(-c3ccco3)on2)cc(OC)c1OC	-3.1	0.69	-1.0	·	1.0	i	-0.1
Cc1cc(CN(C)C(=O)c2cc(COc3ccc4ncccc4c3)on2)on1	-7.6	0.72	0.6	1%	0.4	i	4.3
CN1CCN(c2ccccc2NC(=O)c2sc3ccccc3c2Cl)CC1	5.6	0.71	-2.4	-8%	-2.9	i	1.4
CCOC(=O)c1[nH]c2ccc(OCC)cc2c1NC(=O)CN1CCN(c2ccccn2)CC1	·	0.72	-92	?	-1.6	·	-0.9
CCOC(=O)c1c(C)[nH]c(C(=O)OCCOc2ccccc2C)c1C	-2.6	0.7	1.6	11%	-0.2	i	1.3
COc1ccccc1-c1nc(SCC(=O)NCC2CCCO2)c2c(=O)n(C)c(=O)n(C)c2n1 (centres undefined)	·	0.73	-135	-4%	·	·	2.7
O=C(O)CCNC(=O)c1ccc(NC(=O)Cc2ccc(Cl)cc2)cc1	0.2	0.71	6.1	-2%	-0.8	·	4.5
O=C(NCCCN1CCCC1=O)c1ccc(OC(F)(F)F)cc1	-4.6	0.7	3.9	4%	-2.2	i	4.9
Next section:
SMILES	MLL AF4-AF9 inh	E coli growth	UCH37 inh	Vif A3G	HNF4A DNA FP	FGF22 binding	RanGTP-Imp inh
O=C(Oc1cccc([N+](=O)[O-])c1)c1cc(-c2ccccc2)nc2ccccc12	·	0.75	2.3	3%	-2.6	·	5.0
CCOc1ccccc1CN1CCC(n2nccc2NC(=O)CCCc2ccccc2)CC1	5.7	0.68	-0.8	·	-3.7	i	2.8
Oc1c(C(Nc2cccc(C(F)(F)F)c2)c2ccncc2)ccc2cccnc12 (centres undefined)	33*	0.65	1.6	20%	-1.6	i	-2.3
O=C(NCCCN1CCN(c2cccc(Cl)c2)CC1)C1CCC(=O)N1Cc1ccccc1Cl (centres undefined)	·	0.69	0.2	2%	0.0	·	9.3
CC1(C)C(=O)N(c2ccccc2F)C(=O)c2ccccc21	1.0	0.66	-1.4	-1%	-0.9	i	4.3
COc1cc(/C=C/CNC[C@H]2O[C@@H](n3ccc(N)nc3=O)[C@H](O)[C@@H]2O)ccc1O	-8.4	·	·	-5%	1.7	i	·
Cc1cc(N(C(=O)c2ccco2)C(C(=O)NC2CCCCC2)c2ccccc2)ccc1-n1cnnn1 (centres undefined)	·	0.67	4.0	-1%&-2%	4.9	·	3.8
O=C(NC1CCCCC1)c1ccc2ccccc2c1O	5.0	·	·	5%	1.4	i	·
Cc1cc(C(=O)NN=Cc2ccc(OC(=O)c3ccco3)cc2)c(C)o1	-1.5	0.66	1.9	-5%	0.2	i	·
CCOC(=O)c1c(NC(=S)NC(=O)c2ccc(Cn3cc(Cl)cn3)o2)sc2c1CCCCC2	·	0.8	5.4	8%	-2.3	·	-4.8
CCc1ccc(/C=C2/C(=O)NC(=O)N2C(C)=O)cc1	1.2	0.57	7.3	0%	1.1	i	1.2
O=C(Nc1ccccc1N1CCCC1)c1cc(S(=O)(=O)N2CCOCC2)ccc1Cl	-14	0.67	2.5	-1%	2.3	i	3.8
Cc1ccc(N(CC(=O)N2CCCCCC2)S(C)(=O)=O)c(C)c1	-2.7	·	·	·	3.6	i	·
COc1cccc(S(=O)(=O)N(C)C[C@H]2OCc3cn(nn3)CCCC(=O)N([C@H](C)CO)C[C@@H]2C)c1	-0.6&1.3	·	·	-1%	6.2	i	·
COc1ccc(/C=N/N2CCOCC2)cc1O	·	·	·	-2%	-1.2	·	2.6
Cc1ccc(-c2cc(C(=O)Nc3cc(C)ccc3C)[nH]n2)c(O)c1	·	0.73	6.2	·	0.3	·	0.7
Cc1ccc(NC(=O)COc2ccc(-n3ccnc3)cc2)cc1Cl	·	0.75	2.2	2%	0.6	·	7.0
C=CCNC(=O)c1cc2c(C(F)(F)F)nn(C)c2s1	·	0.72	-0.5	2%	-0.3	·	-0.7
CCOC(=O)c1cnn(-c2ccccc2)c1NC(=O)c1ccccc1C	·	0.72	-1.1	3%	-0.8	·	4.2
O=C(O)CCCCCNc1ncnc2ccc(Br)cc12	-3.6	0.65	6.9	-11%	6.2	i	1.9
O=C1c2ccccc2-c2ccccc2NC1O (centres undefined)	1.2	·	·	3%	1.4	i	·
CC(C)[C@H](NC(=O)NC1CCCC1)C(=O)O	·	0.78	0.5	-1%	-0.1	·	0.3
CC(=O)NC(Cc1ccc(F)cc1)C(=O)N1CCN(C(=O)NCc2ccccc2)CC1 (centres undefined)	1.0	0.73	2.0	11%	0.0	i	0.5
O=C(c1cncc(Br)c1)N1CCN(S(=O)(=O)c2ccc(Cl)cc2)CC1	-0.8	0.71	0.8	·	4.6	i	-2.4
CCn1c(COc2ccc(C)cc2)nnc1SCC(=O)Nc1cc(OC)ccc1OC	·	0.7	4.0	-3%	2.6	·	0.9
New compounds follow
SMILES	MLL AF4-AF9 inh	E coli growth	UCH37 inh	Vif A3G	HNF4A DNA FP	FGF22 binding	RanGTP-Imp inh
S=C(NCc1cccnc1)NCc1cccnc1	-2.3	0.71	0.6	1%	0.8	i	-2.5
C/C(=N\NC(N)=O)c1ccccc1Cl	-3.9	·	·	·	2.0	i	1.1
CSc1nc2c(c(=O)[nH]c(=O)n2C)n1Cc1ccccc1	-0.7	0.67	2.6	-5%	-1.0	i	-1.1
COc1ccc(C2(C)ON(c3ccccc3C(F)(F)F)C2=O)cc1 (centres undefined)	-4.2	0.67	-0.5	·	1.2	i	·
CC1(C)CC(=O)C=C(Nc2ccc3c(c2)CCC3)C1	·	0.69	5.6	·	·	·	0.1
CC(C)C[C@H]1COc2cc(N3CC[C@@H](O)C3)ccc2S(=O)(=O)N1	-1.6	·	·	·	0.3	i	·
CC(=O)NC1CCCc2c1cnn2-c1ccc(C(C)(C)C)cc1 (centres undefined)	0.8	0.67	2.9	·	-0.2	i	-6.0
O=C(COCc1cc(-c2ccc3c(c2)OCO3)on1)N1CCN(c2cccc(C(F)(F)F)c2)CC1	0.8	0.62	1.4	-10%	-0.8	i	3.0
Oc1ccc(Br)cc1C=Nc1cccn2cc(-c3ccccc3)nc12	1.9	0.66	-1.5	8%	1.2	i	3.6
O=C(CSc1nc(O)c(Cc2ccccc2)c(=O)[nH]1)Nc1ccccc1	·	0.7	12	-4%	-1.5	·	6.7
COc1ccc(-n2c(SCC(=O)Nc3cc(C)on3)nc3ccc(O)cc3c2=O)cc1OC	·	0.7	-5.5	3%	8.0	·	-3.7
CCOc1ccc(NC(=O)CSc2nc(C)c3c(c2C#N)CCCC3)cc1	·	0.67	1.7	-1%	1.1	·	4.2
COc1ccc(S(=O)(=O)N(CC(=O)N2CCN(C)CC2)C2CCCCC2)cc1OC	·	0.77	-4.7	13%	-0.2	·	1.8
CCOC(=O)CN1C(=O)CSc2ccc(S(=O)(=O)N3CCCC3)cc21	-6.4	0.64	-1.5	20%	2.2	i	6.4
CC(=O)Nc1ccc(S(=O)(=O)Nc2cccc(-n3c(C)nc4ccccc4c3=O)c2)cc1	-4.1	0.68	-0.2	-3%	3.8	i	-4.8
Cc1c(C(=O)O)sc2nc(CSc3nnc(-c4ccc(F)cc4)n3C)[nH]c(=O)c12	1.4	0.67	4.2	30%	-5.3	i	0.7
CNC(=O)c1[nH]cnc1C(=O)Nc1ccccc1C	·	0.81	-8.4	20%	-1.4	·	-2.4
Cc1ccccc1C(=O)Oc1ccc(Br)cc1C(=S)N1CCCC1	·	0.7	3.6	20%	-3.9	·	0.9
COc1ccc(C2=Nc3ccccc3NC(=O)C2N(CCc2cc(OC)cc(OC)c2)C(C)=O)cc1 (centres undefined)	3.9	·	·	·	2.6	i	·
C[C@@H]1CN([C@@H](C)CO)C(=O)CCCn2nncc2CO[C@H]1CN(C)S(=O)(=O)c1ccc(F)cc1	-2.5&-13&2.9	·	·	-2%	0.1	i	·
N#Cc1ccc(OCC(=O)N/N=C2\CCc3ccccc32)cc1	·	·	·	16%	-6.2	·	1.1
CCOC(=O)c1ccc(NC(=S)N(CCN(C)C)Cc2cccs2)cc1	4.5	0.71	4.0	6%	-0.3	i	1.1
COc1ccc(/C=N/Nc2ncnc3scc(-c4ccccc4)c23)cc1OC	·	·	·	-4%	3.1	·	3.8
CCc1ccc(NC(=O)C(=O)N/N=C(\C)CC(=O)NCCOC)cc1	-1.1	·	·	12%	7.4	i	0.7

Fetched by structure from the entries so far:
SMILES	MLL AF4-AF9 inh	E coli growth	UCH37 inh	Vif A3G	HNF4A DNA FP	FGF22 binding	RanGTP-Imp inh
COc1ccc(-n2c(SCC(=O)Nc3cc(C)on3)nc3ccc(O)cc3c2=O)cc1OC	·	0.7	-5.5	3%	8.0	·	-3.7
Cc1c(C(=O)O)sc2nc(CSc3nnc(-c4ccc(F)cc4)n3C)[nH]c(=O)c12	1.4	0.67	4.2	30%	-5.3	i	0.7
CNC(=O)c1[nH]cnc1C(=O)Nc1ccccc1C	·	0.81	-8.4	20%	-1.4	·	-2.4
CCc1ccc(NC(=O)C(=O)N/N=C(\C)CC(=O)NCCOC)cc1	-1.1	·	·	12%	7.4	i	0.7
